Spn PMK inh: blocks S. pneumoniae phosphomevalonate kinase; purified PMK, PK/LDH-coupled NADH absorbance 340 nm; inhibition, % at 10 µM; 65,000 compounds, 0.49% hits; AID 539;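 active = top-ranked compounds by inhibition in the single 10 µM screen, taking a fixed number of the strongest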;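 note: 0% = full reaction with DMSO carrier and 100% = background rate without enzyme reaction; no value below 0 was filed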
Bfl-1 displacement: Bfl-1 inhibitors, primary screen, biochemical, fluorescence polarization, FITC-Bid, mouse (AID 432). 64,000 compounds, 0.02% hits. FITC-Bid BH3 peptide fluorescence polarization displacement; higher % means a stronger effect. displacement, % at 20 µM; hits with a dose series show IC50 in µM; in the data active = a potency from the dose series; inactive = the rest, 99 in 100 with displacement below about 15%; note: strong numbers were not always called active
LYP inhibition: inhibition of human PTPN22 tyrosine phosphatase – biochemical, DiFMUP fluorescence, recombinant catalytic domain, 10 µM, primary screen (AID 606); recombinant LYP catalytic domain, DiFMUP fluorescence; higher % means a stronger effect; one-dose inhibition, % at 10 µM; IC50 in µM for titrated hits; 52,000 tested, under 10 active;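 active = IC50 under 40 µM in the dose-response test; inactive = IC50 of 40 µM or more, or never dose-tested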
HT1080 cytotoxicity: cytotoxicity in HT1080 fibrosarcoma cells, cell-based, fluorescence readout (AID 620). one-dose cytotoxicity, % at 10 µM; EC50 in µM for titrated hits. HT1080 viability, fluorescence; higher % means a stronger effect. 87,000 compounds, 0.42% hits; in the data active = cytotoxicity above about 50%;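 note: cells exposed to compound overnight then 4 h with Alamar Blue; 0% = vehicle DMSO and 100% = killing control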
Spn DPM-DC inh: S. pneumoniae DPM-DC inhibition; purified DPM-DC, PK/LDH coupled NADH fluorescence; calls only at 10 µM; 65,000 compounds, 0.49% hits;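 active = the 320 compounds with the highest percent inhibition in the single-dose primary screen, excluding strongly autofluorescent ones, cut at about 32% in these data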;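 note: kinetic rate of NADH fluorescence loss reporting ADP formed by the decarboxylase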
Spn PMK inh pilot replicates: second read-out of Spn PMK inh, no call of its own (marks repeat the call); inhibition, %; measured here: pilot screen replicates
Spn DPM-DC inh pilot screen %: second read-out of Spn DPM-DC inh, no call of its own (marks repeat the call); inhibition, %; measured here: pilot screen trials
* hit, by the source's call; i = inactive; . = not tested or not shown.

The opening five entries, to show the layout:
Field names: A = Spn PMK inh; B = Spn PMK inh pilot replicates; C = Bfl-1 displacement; D = LYP inhibition; E = HT1080 cytotoxicity; F = Spn DPM-DC inh; G = Spn DPM-DC inh pilot screen %
> O=C(C1CCN(Cc2ccccc2)CC1)N1CCCC1
  A: 0.0	B: .	C: -2.4%	D: -0.6%	E: -2.8%	F: i	G: .
> CCC(=O)Nc1ccc(NC(=O)c2ccccn2)cn1
  A: 0.0	B: 1.0	C: -1.1%	D: 7.6%	E: -0.1%	F: i	G: 0.5
> Cn1c(=O)c2[nH]cnc2n(C)c1=O
  A: 0.0	B: 4.0	C: -4.7%	D: 17.6%	E: -5.9%	F: i	G: 3.5
> COc1cc(/C=C/C(=O)CC(=O)/C=C/c2ccc(O)c(OC)c2)ccc1O
  A: 0.0	B: 4.0	C: -126.7%	D: 9.9%	E: 49.4%	F: i	G: 6.0
> COc1ccccc1N1CCN(Cc2cccc(OC)c2OC)CC1
  A: 2.0	B: .	C: -6.1%	D: .	E: -0.8%	F: i	G: .

Results, previewed entries included:
Field names: A = Spn PMK inh; B = Spn PMK inh pilot replicates; C = Bfl-1 displacement; D = LYP inhibition; E = HT1080 cytotoxicity; F = Spn DPM-DC inh; G = Spn DPM-DC inh pilot screen %
> O=C(C1CCN(Cc2ccccc2)CC1)N1CCCC1
  A: 0.0	B: .	C: -2.4%	D: -0.6%	E: -2.8%	F: i	G: .
> CCC(=O)Nc1ccc(NC(=O)c2ccccn2)cn1
  A: 0.0	B: 1.0	C: -1.1%	D: 7.6%	E: -0.1%	F: i	G: 0.5
> Cn1c(=O)c2[nH]cnc2n(C)c1=O
  A: 0.0	B: 4.0	C: -4.7%	D: 17.6%	E: -5.9%	F: i	G: 3.5
> COc1cc(/C=C/C(=O)CC(=O)/C=C/c2ccc(O)c(OC)c2)ccc1O
  A: 0.0	B: 4.0	C: -126.7%	D: 9.9%	E: 49.4%	F: i	G: 6.0
> COc1ccccc1N1CCN(Cc2cccc(OC)c2OC)CC1
  A: 2.0	B: .	C: -6.1%	D: .	E: -0.8%	F: i	G: .
> c1ccc(-c2ccc(CN3CCN(c4ncccn4)CC3)cc2)cc1
  A: 3.0	B: .	C: -7.1%	D: .	E: -1.4%	F: i	G: .
> O=c1[nH]c2cc(Cl)ccc2n1-c1ccccc1
  A: 8.0	B: .	C: -7.2%	D: 7.0%	E: 22.9%	F: i	G: .
> CC1CC(C)(C)NCCNC(C)CC(C)(C)NCCN1 (stereo unspecified)
  A: 1.0	B: .	C: -7.5%	D: 10.4%	E: 6.3%	F: i	G: .
> CC(C)=CCCC(C)CN(C)CCc1ccccn1 (stereo unspecified)
  A: 4.0	B: 2.5	C: -1.9%	D: 15.8%	E: -5.1%	F: i	G: 4.0
> CCOC(=O)c1sc(NC(=O)CSc2n[nH]c(-c3ccccc3)n2)c(C#N)c1C
  A: 10.0	B: 0.5	C: 4.8%	D: 1.4%	E: -11.0%	F: i	G: 6.5
> O=C(CCc1ccccc1)Nc1ncn[nH]1
  A: 2.0	B: .	C: -6.7%	D: 0.3%	E: 6.2%	F: i	G: .
> O=C(O)c1[nH]nc2c1COc1ccccc1-2
  A: 2.0	B: 2.5	C: -0.9%	D: -0.2%	E: -10.8%	F: i	G: 1.0
> O=C(O)c1cc(-c2ccccc2Cl)n[nH]1
  A: 10.0	B: 2.5	C: -4.5%	D: -2.7%	E: 20.2%	F: i	G: 0.0
> CCOc1ccc(C)cc1S(=O)(=O)Nc1cccnc1
  A: 8.0	B: .	C: -2.2%	D: -2.0%	E: 1.6%	F: i	G: .
> COc1ccc(OC)c(S(=O)(=O)Nc2cnc3ccccc3c2)c1
  A: 1.0	B: .	C: -5.2%	D: 10.2%	E: 1.6%	F: i	G: .
> Cc1ccsc1/C=c1\sc2ncnn2c1=O
  A: 4.0	B: .	C: -1.1%	D: 13.0%	E: -5.1%	F: i	G: .

Look-ups from the entries so far:
O=C(O)c1cc(-c2ccccc2Cl)n[nH]1 | HT1080 cytotoxicity: 20.2%
CC1CC(C)(C)NCCNC(C)CC(C)(C)NCCN1 (stereo unspecified) | HT1080 cytotoxicity: 6.3%

A portion of the library; count on the stated rates, not on these rows.
